VDR inh: blocks the human vitamin D receptor. P11473. VDR-SRC2-3 peptide fluorescence polarization, 2 h. Potency, µM, without a hit: max response, negative = inhibition, usual class: inhibitors. 0.93% of 400,000 active; active means well fitted inhibition curve with a large enough effect; inconclusive means small, poorly fitted or top-dose-only effect, or another doubt; inactive means no such curve, though single readings can be large or run the other way; further: series mostly up to about 120 µM
Target sequence (P11473 whole entry, looked up): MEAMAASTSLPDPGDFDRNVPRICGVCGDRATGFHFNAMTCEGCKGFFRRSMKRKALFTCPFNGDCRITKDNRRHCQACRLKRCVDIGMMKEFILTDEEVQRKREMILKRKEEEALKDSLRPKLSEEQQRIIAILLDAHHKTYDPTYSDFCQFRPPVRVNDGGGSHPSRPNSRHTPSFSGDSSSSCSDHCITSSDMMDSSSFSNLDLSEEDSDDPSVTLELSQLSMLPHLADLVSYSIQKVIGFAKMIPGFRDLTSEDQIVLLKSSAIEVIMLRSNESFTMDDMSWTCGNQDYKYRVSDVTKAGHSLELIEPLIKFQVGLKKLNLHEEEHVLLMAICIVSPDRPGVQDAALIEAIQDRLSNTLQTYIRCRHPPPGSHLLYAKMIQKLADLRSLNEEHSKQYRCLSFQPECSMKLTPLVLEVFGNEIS
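Measured by FP: displacement of SRC2-3 coactivator peptide from VDR by library compounds, following a two-hour ambient incubation.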
* marks the source's active call; other numbers are inactive results; u = inconclusive; & = joins results of further samples. On the % scale 0 is the no-effect control and ±100 the full control effect; potency means the concentration at half of the fitted maximal effect. A portion of the library (hit frequency here may not be typical).

molecule	VDR inh
O=C(NNC(=O)c1cc(Cl)ccc1[N+](=O)[O-])c1csc(N2CCOCC2)n1	-5.2%
COc1cccc(NC(=O)C2CCCCC2)c1	-11.8%
COc1ccc(C2=NN(CC(=O)Nc3ccccc3C)C(=O)CC2)cc1	16.3%
CC1CN(c2ccc(C(=O)c3ccccc3C(=O)O)cc2[N+](=O)[O-])CC(C)O1 (centres undefined)	-10.0%
CC(C)(C)OC(=O)NCCCCCNC(=O)c1ncn(Cc2ccccc2)c1C(=O)NCCCCCNC(=O)OC(C)(C)C	-8.6%
CC(C)CNC(=S)N1CCN(C(c2ccccc2)c2ccccc2)CC1	-7.9%
COc1ccc(NC(=O)CC2C(=O)N(Cc3ccccc3)C(=S)N2CCN2CCOCC2)cc1 (centres undefined)	-3.0%
COc1ccc(N2CCN(CC(O)COc3ccccc3C(C)(C)C)CC2)cc1 (centres undefined)	-2.8%
COc1ccc(CC2(CO)CCN(Cc3ccc4nsnc4c3)CC2)cc1	-4.7%
CCc1ccc(C(=O)N2CCC(c3nc(-c4ccc(S(=O)(=O)N5CCCC5)cc4)no3)CC2)cc1	12.5%

Overlap with the part before: 5 compounds; new compounds follow.
molecule	VDR inh
CC(C)CNC(=S)N1CCN(C(c2ccccc2)c2ccccc2)CC1	-7.9%
COc1ccc(NC(=O)CC2C(=O)N(Cc3ccccc3)C(=S)N2CCN2CCOCC2)cc1 (centres undefined)	-3.0%
COc1ccc(N2CCN(CC(O)COc3ccccc3C(C)(C)C)CC2)cc1 (centres undefined)	-2.8%
COc1ccc(CC2(CO)CCN(Cc3ccc4nsnc4c3)CC2)cc1	-4.7%
CCc1ccc(C(=O)N2CCC(c3nc(-c4ccc(S(=O)(=O)N5CCCC5)cc4)no3)CC2)cc1	12.5%
CC(=O)Nc1ccc2nc(-c3ccc(Br)o3)[nH]c2c1	-14.5%
Cc1ccccc1C(=O)Nc1cccc(-c2nnc(SCC(=O)O)n2C)c1	7.9%
COC(=O)c1ccc(CSc2nnnn2-c2ccccc2)o1	3.4%
CCOC(=O)C(Cc1ccc(O)cc1)NC(=O)CNC(=O)C(CC(C)C)NC(=O)OC(C)(C)C (centres undefined)	-13.1%
Fc1ccc(CCNc2ncnc3nc[nH]c23)cc1	-12.1%&5.0%
Clc1ccc2c(SCC3CO3)c3ccccc3nc2c1 (centres undefined)	39.8µM*
CCc1ccc(NC(=O)Cn2c(=O)n(CCc3ccccc3)c(=O)c3sc4ccccc4c32)cc1	7.5%
COc1cccc(CNC(=O)Cn2c(=O)n3nc(-c4cccc(C)c4)nc3c3ccccc32)c1	15.1%
O=C(Nc1cccc(-c2ccc(F)cc2)c1)C1CCCN(C(=O)c2cscn2)C1 (centres undefined)	-3.8%
CC1(C)CC(=O)C=C(c2ccc(OC(F)(F)F)cc2)C1	-7.9%

(cont.)
molecule	VDR inh
C#CCSc1nc(C)cc(C(=O)OCC)c1C#N	-8.9%
CCCNC(=O)CNC(=S)N(Cc1cc(OC)c(OC)c(OC)c1)C1CCCC1	-24.6%
Cc1c(C(=O)N2CCN(S(C)(=O)=O)CC2)oc2ccccc12	1.3%
Cc1cccc(CNC(=O)CN2CC(C)Sc3ccccc32)c1 (centres undefined)	2.6%
CN(C)C(=O)c1ccc(NC(=O)CSc2nnc(-c3cccs3)n2N)cc1	5.7%
O=S(=O)(Nc1ccc2c(c1)CCC2)c1cccs1	3.8%
O=C(NC1CCCCC1)N1CCCC(c2nc(-c3ccc(S(=O)(=O)N4CCCC4)cc3)no2)C1 (centres undefined)	-6.2%
C[C@@]12C(=O)N(CC3CCCO3)CC(=O)N1[C@H]1c3ccccc3OC[C@@H]1[C@@H]2c1ccccc1 (some centres undefined)	-13.7%
S=C(NCCN1CCOCC1)Nc1ccc(Cl)c(Cl)c1	-15.1%
CCOC(=O)c1cnn(CC2CCCCC2)c1N	-3.9%

Further compounds:
molecule	VDR inh
Cc1cc(C)cc(NC(=O)Nc2cccnc2)c1	10.3%
CC(=O)Nc1sc2c(c1C#N)CCC(C)C2 (centres undefined)	-6.6%
O=C1CCCc2ccccc2N1Cc1cccc(Cl)c1	-3.2%
Nn1c(SCC(=O)Nc2ccc3c(c2)OCO3)nnc1-c1ccncc1	-6.1%
CN(CC(=O)Nc1cccc2c1CCCC2)S(=O)(=O)c1ccccc1	-1.6%
CN(C)CCCN(C(=O)c1cccs1)c1nc2ccc(F)cc2s1	-3.0%
COC(=O)c1ccc(N2CCN(CC(=O)c3ccc(-c4ccccc4)cc3)CC2)c([N+](=O)[O-])c1	-3.2%
CCCCn1c(SCC(=O)c2ccc3c(c2)OCCO3)nnc1-c1ccco1	-18.8%
COC(=O)c1sccc1NC(=O)c1cccc(F)c1	-0.1%
O=C(CC12CC3CC(CC(C3)C1)C2)N/N=C/c1ccncc1	u

Following part.
molecule	VDR inh
Cc1ccc(S(=O)(=O)CNC(=O)c2ccccc2)cc1	-0.1%
Cc1ccc(NC(=O)c2c(C)noc2C)cc1	2.5%
CCOc1ccccc1NC(=O)c1cc(S(=O)(=O)NCc2ccco2)ccc1F	3.3%
COCCn1c(Cc2ccccc2)nnc1SCC(=O)Nc1oc(C)c2c(C)n[nH]c(=O)c12	-14.0%
Cc1ccc(CNC(=O)c2ccc([N+](=O)[O-])o2)cc1	-10.8%
CC(C)(C)OC(=O)C[C@H]1C/C=C\C[C@@H](CC(=O)NCCO)C(=O)N2CCC[C@H]2COC1=O	-22.1%
Cc1ccc(-n2ncc(C(=O)NCc3ccco3)c2C2CCN(C(=O)OC(C)(C)C)CC2)cc1	13.6%
COn1c(-c2ccccc2)c(C=O)c2ccccc21	7.8%
O=C(CSc1ccc(-c2ccccn2)nn1)NC1CCCCC1	8.0%
Cc1c(C(=O)OC2CCC(C)CC2)[nH]c2c1C(=O)CC(c1ccc(N(C)C)cc1)C2 (centres undefined)	-4.2%

Following part:
molecule	VDR inh
NNC(=O)C1CCCN1S(=O)(=O)c1ccc(Cl)cc1 (centres undefined)	12.1%
CC(C)OCCCn1c(=S)[nH]c2cc3c(cc2c1=O)OCO3	-0.5%
Cc1cc(CN2CCN(c3ccccc3F)CC2)cs1	8.6%
CN(C)c1ccc(CNC(=O)c2ccc3c(c2)N(C)C(=O)C2CCCCN32)cc1 (centres undefined)	13.5%
Nc1ncncc1-c1ccc(Cl)cc1	-8.3%
CC(C)Oc1cccc(C(=O)NC(=S)N2CCN(c3ccc(C(F)(F)F)cc3[N+](=O)[O-])CC2)c1	7.4%
Cc1cc(=O)oc2cc(OC(=O)c3ccco3)ccc12	-11.5%
CC(C)(C)c1cc(C(=O)Nc2ccc(F)cc2)n(Cc2ccc(F)cc2)n1	-7.5%
O=C(c1ccc(Cl)cc1)C1CCN(C(=S)Nc2ccccc2)CC1	-24.6%
COc1ccc(-c2noc(N3CCC(C(=O)N4CCN(c5ccccn5)CC4)CC3)n2)cc1	9.0%

Continued.
molecule	VDR inh
CCCc1nc(SCC(=O)N2CCN(c3ccccc3)CC2)c2c(=O)n(C)c(=O)n(C)c2n1	-20.6%
CCN(Cc1ccccc1)S(=O)(=O)c1cc(C(=O)Nc2cc(Cl)cc(Cl)c2)ccc1F	8.1%
CN1C(=O)C(CC(=O)NCCc2ccccc2)N(NC(=O)c2ccc(Cl)cc2)C1=S (centres undefined)	-7.8%
COc1ccc(Cl)cc1NC(=O)c1cccc([N+](=O)[O-])c1O	-16.4%
CCC(=O)Nc1ncc2c(n1)CC(c1ccco1)CC2=O (centres undefined)	-3.2%
Cc1cc(C)cc(C(=O)NC2C(=O)N3C(C(=O)O)=C(CSc4nnc(C)s4)CSC23)c1 (centres undefined)	79.4µM*
CCCCCCCCCCCC1N=C(N)NC(CCCO)=C1C(=O)OC (centres undefined)	-25.2%
CC(C)(C)c1ccc(/C=C/C(=O)O)s1	-1.9%
O=C(/C=C/c1ccccc1)NC(NC(=S)Nc1ccc(Cl)cc1)C(Cl)(Cl)Cl (centres undefined)	u
CCC1=NN(C(=O)CCc2ccc3c(c2)OCO3)C(O)(C(F)(F)F)C1 (centres undefined)	-4.8%

Later entries:
molecule	VDR inh
C=C1c2cccc(C(F)(F)F)c2O[C@H](C(=O)OCC)[C@H]1OC	-10.2%
CCOC(=O)C1(CCc2ccccc2)CCN(C(=O)c2cnc(C)cn2)CC1	-3.0%
O=C(CN1C(=O)COc2ccc(S(=O)(=O)Nc3ccccc3)cc21)Nc1cccc(Cl)c1	18.9%
COc1ccc(C(CCN2CCOCC2)c2c(OC)cc(OC)c3c(C)cc(=O)oc23)cc1 (centres undefined)	-6.9%
COc1cc(C(C(=O)NCc2ccccc2)N(C(=O)c2snc(C(N)=O)c2N)C2CCCC2)cc(OC)c1OC (centres undefined)	7.1%
COc1ccc(S(=O)(=O)c2c(Nc3ccccc3F)sc(C(=O)c3cccc(OC)c3)c2N)cc1	-1.3%
Cc1ccc2c(c1)C(N1CCCC1=O)CC(c1ccco1)N2 (centres undefined)	-13.4%
CCOc1ccccc1NC(=O)CCNS(=O)(=O)c1cccc2nonc12	19.4%&-1.7%
O=C(Nc1ccccc1C(=O)N1CCOCC1)c1noc2c1CCCC2	-7.9%
O=C1CC(NNC(=O)c2ccc(Br)cc2)C(=O)N1 (centres undefined)	-12.7%

The list continues.
molecule	VDR inh
CC(C)CNC(=O)CC(=O)N/N=C/c1ccc(Br)cc1	-8.5%
O=C1CN(C(=O)COc2ccc([N+](=O)[O-])cc2Cl)c2ccccc2N1	-3.2%
O=C(c1cc(-c2ccncc2)nc2ccccc12)N1CCN(S(=O)(=O)/C=C/c2ccccc2)CC1	8.5%
CCc1cccc(C)c1NC(=O)C(CC)Sc1nncn2c1cc1occc12 (centres undefined)	6.0%
CC(=O)Nc1ccn(C2CC3OCC(NC(=O)C4CCCN4C(=O)OC(C)(C)C)C3O2)c(=O)n1 (centres undefined)	-9.8%
N#Cc1cccc(C(=O)OCC(=O)NC(=O)NC2CCCCC2)c1	-8.5%
COc1ccnc(CSC(N)=Nc2cccc(C(F)(F)F)c2)c1	u
COc1ccccc1N1C(=O)CCC1(C#N)c1ccccc1 (centres undefined)	5.1%
CCOc1ccc(C(=O)c2cn(CC(=O)Nc3cc(OC)cc(OC)c3)c3ccc(F)cc3c2=O)cc1	-8.6%
COC(=O)[C@@H](O)CC[C@@H](C)Cc1c(OC)c(OC)c(C)c(OC)c1OC	1.1%

More records follow.
molecule	VDR inh
C[C@]12c3[nH]c4ccccc4c3CCN1C(=O)C(CC(=O)NCc1ccco1)C[C@@H]2C(=O)N1CCCCC1 (some centres undefined)	-5.2%
O=C(CSc1nnc(-c2ccccn2)n1-c1ccc(Cl)cc1)Nc1ccc2c(c1)OCO2	13.5%
CCOc1ccc(Cl)cc1CSc1ncn[nH]1	12.4%
CC1CCCN(CC(O)CN)C1 (centres undefined)	12.5%
O=C1c2[nH]nc(-c3ccc(F)cc3)c2C(c2ccccc2F)N1c1ccccc1 (centres undefined)	0.9%
Cn1c(=N)n(CC(=O)O)c2ccccc21	0.2%
Cc1cc(NC(=O)CCC(=O)N(c2ccccc2)C(C)C(=O)NC2CCCC2)no1 (centres undefined)	-11.3%
COc1ccc(/C=C/C(=O)Nc2nnc(C(C)C)s2)cc1OC	-10.9%
CCC(C)NC(=O)c1[nH]c2cc(OC)ccc2c1Sc1ccc(C)cc1 (centres undefined)	10.3%
CC(CCc1ccccc1)NC(=O)CSc1n[nH]c(-c2ccc(F)cc2)n1 (centres undefined)	-5.0%

(further entries)
molecule	VDR inh
CC(=O)Nc1nonc1-c1nnc(SCc2ccccc2)n1C	-11.9%
C#CCN1C(=O)C(O)(c2c(C)[nH]c3ccccc23)c2ccccc21 (centres undefined)	-14.3%
O=C1c2ccccc2NC(c2ccco2)N1NS(=O)(=O)c1ccccc1 (centres undefined)	-11.5%
N#CC(c1ccccn1)c1ncc(C(F)(F)F)cc1Cl (centres undefined)	4.4%
O=C(COc1ccc(Cl)cc1Cl)Nc1cccc(-c2ccc(N3CCOCC3)nn2)c1	-13.6%
COc1ccc(-c2nc(CSCC(=O)NCc3ccccc3Cl)c(C)o2)cc1OC	-4.3%
CCc1c(C)nc(N)c(C#N)c1-c1ccccc1	-13.0%
CCOC(=O)N1CCC(n2c(=S)[nH]c3cc(OCC)c(OCC)cc3c2=O)CC1	-4.8%
Clc1ccccc1-c1csc(Nc2cccnc2)n1	4.2%
CCCC(C(=O)NC1CCCC1)N(Cc1ccccc1)C(=O)c1snc(C(N)=O)c1N (centres undefined)	-6.0%

New compounds follow.
molecule	VDR inh
CCOC(=O)c1c(CN2CCN(CCO)CC2)n(C)c2cc(Br)c(OC)cc12	4.3%
C[C@H](NC(=O)c1cc2c([nH]c3ccccc32)c(-c2ccccc2)n1)C(=O)O	13.0%
Cc1c(C(=O)Nc2ccc3c(c2)OCCO3)sc2nc(-c3ccccc3)cn12	20.0%
CCOc1ccc(NC(=S)NC2CC3CCC(C2)N3Cc2ccco2)cc1 (centres undefined)	-9.4%
COc1cc(NC(=O)C2CCN(S(=O)(=O)c3c(C)noc3/C=C/c3ccccc3F)CC2)cc(OC)c1OC	4.9%
Cc1ccnc(OC(C(=O)O)C(OCc2ccccc2)(c2ccccc2)c2ccc(C(F)(F)F)cc2)n1 (centres undefined)	1.7%
CC(SC#N)C(=O)C12CC3CC(CC(C3)C1)C2 (centres undefined)	-21.8%

Arranged by heavy-atom count (smallest number first): some entries from above
molecule	VDR inh
CC(SC#N)C(=O)C12CC3CC(CC(C3)C1)C2 (centres undefined)	-21.8%
Cc1c(C(=O)Nc2ccc3c(c2)OCCO3)sc2nc(-c3ccccc3)cn12	20.0%
Cc1ccnc(OC(C(=O)O)C(OCc2ccccc2)(c2ccccc2)c2ccc(C(F)(F)F)cc2)n1 (centres undefined)	1.7%

Screening data (PubChem BioAssay)
